# High-throughput results: PubChem BioAssay, ICCB-Longwood Screening Facility, Harvard Medical School
# PV pol inh – poliovirus RdRp elongation inhibitors, primary screen, biochemical, fluorescence polarization, total intensity | Genome polyprotein (Poliovirus type 1 (strain Mahoney)), P03300 | poliovirus polymerase elongation; active compounds read low | % elongation, % (compound at 16.7 µg/mL) | actives 0.66% (n = 150,000) | AID 588519, 2011; in the data active = % elongation below about 90%; note: some results filed as inactive read as strong as hits
# Target sequence (P03300 1749-2209 limits assumed): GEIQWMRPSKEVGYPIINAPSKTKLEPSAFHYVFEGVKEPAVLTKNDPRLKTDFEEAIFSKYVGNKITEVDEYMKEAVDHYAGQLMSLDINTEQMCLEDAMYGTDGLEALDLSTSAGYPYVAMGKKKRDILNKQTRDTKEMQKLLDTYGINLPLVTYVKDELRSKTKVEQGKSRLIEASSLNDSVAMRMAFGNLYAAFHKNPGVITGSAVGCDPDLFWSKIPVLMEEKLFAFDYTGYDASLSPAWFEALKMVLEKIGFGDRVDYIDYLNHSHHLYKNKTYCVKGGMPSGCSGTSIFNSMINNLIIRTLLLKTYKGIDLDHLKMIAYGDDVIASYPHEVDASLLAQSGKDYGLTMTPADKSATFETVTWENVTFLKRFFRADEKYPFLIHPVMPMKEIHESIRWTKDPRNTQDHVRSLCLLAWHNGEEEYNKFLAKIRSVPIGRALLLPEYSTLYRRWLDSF
# PV pol inh intensity – further read-out of PV pol inh, marked with its call; % elongation; measured here: total intensity read-out; formula for this scale not given here;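 total fluorescence in place of polarization; lower means less elongation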
# * hit, by the source's call. Only part of the results is shown. The share of hits here may be higher or lower than overall.
SMILES,PV pol inh,PV pol inh intensity
COc1ccc(N2CC(C(=O)NCCS(=O)(=O)N3CCN(c4ccccc4)CC3)CC2=O)cc1 (stereo not given),104,107
O=C(O)c1ccc(Cn2cnc3cccnc32)cc1,98,110
CCOc1ccc(NC(=O)c2c(NC(=O)c3cccs3)sc3c2CCC(C(C)(C)C)C3)cc1 (stereo not given),105,107
N#Cc1c[nH]n2c(NC3CCCC3)c(-c3ccc(Br)cc3)nc12,103,100
CCc1ccccc1NC(=O)c1cc(-c2ccc(Cl)s2)nc2ccccc12,79,180
CSc1cccc(NC(=O)c2ccc3c(c2)CCCN3S(C)(=O)=O)c1,111,113
Cc1cccc(NC(=O)CCN2CCN(c3ccccc3F)CC2)c1,100,97
CCOc1ccc(C2c3cc(OCC)c(OCC)cc3CC(=O)N2c2ccc(C(=O)O)cc2)cc1OCC (stereo not given),108,108
CCCC1=Nc2cc(C(=O)NC3CCC(C)CC3)ccc2Sc2ccccc21 (stereo not given),112,110
CCCCN1CC(c2nc3ccccc3n2CCCCOc2ccc(C)cc2C)CC1=O (stereo not given),104,109
Cc1ccc(C)c(Cn2c(=O)n(CCCCC(=O)NCc3ccccc3Cl)c(=O)c3ccccc32)c1,107,107
Cc1c(Cl)cccc1NC(=O)Cn1c(CCC(=O)O)ccc1-c1cccs1,102,106
O=C(Nc1ccccc1Br)c1cc(CN2CCCC2)on1,104,105
COCCCN1C(=O)c2[nH]nc(-c3ccccc3O)c2C1c1ccc(OCc2ccccc2)cc1 (stereo not given),107,109
COc1ccc(CCNC(=O)C(=O)NCC(c2ccco2)S(=O)(=O)c2cccs2)cc1OC (stereo not given),114,114
Cc1cc(C)c2c(=O)cc(CSCC(=O)Nc3ccccc3Cl)[nH]c2c1,115,115
COc1ccc2c(c1)c1c(c(=O)n(-c3ccc(C)cc3)c(=O)n1CC(=O)N1CCCC1)n2C,107,110
CCc1ccc(S(=O)(=O)N2CCN(c3ccc(Cl)c(Cl)c3)CC2)cc1,103,104
CCc1cccc(NC(=O)CSc2nc3ccccc3nc2N2CCCCC2)c1,110,111
Cc1ccc(Cl)cc1-n1ncc2c(NCCc3ccccc3)ncnc21,110,113
O=C(CN1C(=O)C2(SCC(=O)N2c2ccc(F)cc2)c2ccccc21)NCCc1ccccc1 (stereo not given),103,109
CSc1nc2sc3c(c2c(=O)n1-c1ccc(C)c(Cl)c1)CCN(C(C)=O)C3,105,108
CCOC(=O)c1[nH]c2c(c1Cc1ccccc1OC)C(=O)CC(c1ccccc1)C2 (stereo not given),100,98
Clc1cccc(N2CCN(c3nc4ccccc4c4nc(-c5cccnc5)nn34)CC2)c1,104,110
CCOc1nc(NC(=O)NS(=O)(=O)Oc2ccccc2Cl)nc(-c2ccccc2)n1,106,108
CC(C)Cn1cc(NC(=O)NCc2ccccc2Cl)c2ccccc2c1=O,41*,50*
CCOc1ccccc1NC(=O)CSc1nc2c(oc3ccccc32)c(=O)n1-c1ccc(F)cc1,104,110
Cc1cccc(C)c1-n1ncc(C(=O)NCc2ccc3c(c2)OCO3)c1C1CCN(C(=O)OC(C)(C)C)CC1,135,163
Cc1ccc(Cn2ccn(CC(=O)Nc3ccccc3C(F)(F)F)c(=O)c2=O)cc1,116,114
CC(C)c1ccc(NC(=O)c2ccc(CN3CC(=O)N4CCCCC4C3=O)cc2)cc1 (stereo not given),107,111
Cc1cccc(-c2nc(SCC(=O)Nc3cc(C)on3)c3c(=O)n(C)c(=O)n(C)c3n2)c1,106,109
CCCCc1nc2ccccc2n2c(-c3ccc(OC)cc3)c3c(=O)n(C)c(=O)n(C)c3c12,105,108
CCc1cccc(NC(=O)CSc2nnc(-c3cc4occc4n3C)n2-c2ccccc2C)c1,109,116
O=C(CSc1ncc(CO)n1Cc1ccc(F)cc1)NCc1ccco1,103,101
COc1cccc(NC(=O)CCC(=O)N2Cc3ccccc3Oc3ncccc32)c1,114,120
CCOC(=O)c1cccc(NC(=O)c2cc3cc4ccc(C)cc4nc3o2)c1,113,110
CCc1ccc(Nc2nc(N)nc(CSc3nc4ccccc4s3)n2)cc1,106,109
COc1ccc(C2NC(=O)NC(C)=C2C(=O)Nc2cc(C)cc(C)c2)c(OC)c1 (stereo not given),115,118
COc1ccc(OC)c(CCNC(=O)c2c3c(nc4ccccc24)C(=O)N(C2CCCCC2)C3)c1,104,113
Cc1ccc(Cl)cc1NC(=O)CCn1c(=O)c2cccn2c2cccnc21,110,110
Cc1ccc(CNC(=O)C(=O)NCC(c2ccco2)S(=O)(=O)c2ccc(C)cc2)cc1 (stereo not given),108,109
COc1cccc(NC(=O)CSc2nc3c([nH]c4ccccc43)c(=O)n2-c2ccccc2)c1,106,107
CCCCc1ccc(NC(=O)Cn2cnc3c2c(=O)n(C)c(=O)n3C)cc1,107,106
Cc1nc(SCC(=O)Nc2ccc(Br)cc2)[nH]c(=O)c1Cc1ccccc1,105,110
O=C(NC1CCCC1)c1cc(Nc2cccc(C(F)(F)F)c2)nc2ccccc12,105,109
COc1cc(OC)cc(C(=O)NCCc2csc3nc(-c4ccccc4F)nn23)c1,104,110
c1ccc(-c2nnc(CN3CCN(c4ccccc4)CC3)o2)cc1,107,109
O=C(CCS(=O)(=O)c1ccccc1)N(Cc1cccnc1)c1nc2c(F)cccc2s1,114,111
O=C(Nc1ccccc1)c1cccc(N2CCCS2(=O)=O)c1,105,98
CCOc1ccc(C(=O)Nc2ccc(-c3nc4cc(C(C)C)ccc4o3)cc2)cc1Cl,108,104
Cc1ccc(Cn2cc(S(=O)(=O)c3cccc(Cl)c3)c(=O)c3cc(F)c(N4CCCCC4)cc32)cc1,111,104
CCOC(=O)c1nc(Nc2ccc(C(=O)OC(C)C)cc2)c2ccccc2n1,109,107
CCn1cc(/C=C(\NC(=O)c2ccc(OC)c(OC)c2)C(=O)NCCCn2ccnc2)c2ccccc21,105,110
COc1ccccc1NC(=O)c1sc2nc(N3CCOCC3)c3c(c2c1N)CC(C)(C)OC3,106,109
Cc1cc(C)c2c(=O)cc(CSCC(=O)Nc3nnc(C)s3)[nH]c2c1,102,103
Cc1cc(OCC(=O)Nc2ccc(C(=O)OC3CCCCC3)cc2)ccc1Cl,101,107
CCn1c(CN2CCC(C)CC2)nc2cc(NC(=O)c3ccccc3[N+](=O)[O-])ccc21,104,110
CC(NC(=O)C1CCN(S(=O)(=O)c2ccc3c(c2)oc(=O)n3C)CC1)c1ccccc1 (stereo not given),107,112
Cc1ccc(C(=O)N/C(=C\c2cn(S(=O)(=O)N(C)C)c3ccccc23)C(=O)NCCCn2ccnc2)cc1,114,117
COc1ccc(OC)c(NC(=O)Cn2c(CCC(=O)O)ccc2-c2ccccc2)c1,130,154

# A section from the list above:
SMILES,PV pol inh,PV pol inh intensity
Cc1nc(SCC(=O)Nc2ccc(Br)cc2)[nH]c(=O)c1Cc1ccccc1,105,110
O=C(NC1CCCC1)c1cc(Nc2cccc(C(F)(F)F)c2)nc2ccccc12,105,109
COc1cc(OC)cc(C(=O)NCCc2csc3nc(-c4ccccc4F)nn23)c1,104,110
c1ccc(-c2nnc(CN3CCN(c4ccccc4)CC3)o2)cc1,107,109
O=C(CCS(=O)(=O)c1ccccc1)N(Cc1cccnc1)c1nc2c(F)cccc2s1,114,111
O=C(Nc1ccccc1)c1cccc(N2CCCS2(=O)=O)c1,105,98
CCOc1ccc(C(=O)Nc2ccc(-c3nc4cc(C(C)C)ccc4o3)cc2)cc1Cl,108,104
Cc1ccc(Cn2cc(S(=O)(=O)c3cccc(Cl)c3)c(=O)c3cc(F)c(N4CCCCC4)cc32)cc1,111,104
CCOC(=O)c1nc(Nc2ccc(C(=O)OC(C)C)cc2)c2ccccc2n1,109,107
CCn1cc(/C=C(\NC(=O)c2ccc(OC)c(OC)c2)C(=O)NCCCn2ccnc2)c2ccccc21,105,110
COc1ccccc1NC(=O)c1sc2nc(N3CCOCC3)c3c(c2c1N)CC(C)(C)OC3,106,109
Cc1cc(C)c2c(=O)cc(CSCC(=O)Nc3nnc(C)s3)[nH]c2c1,102,103
Cc1cc(OCC(=O)Nc2ccc(C(=O)OC3CCCCC3)cc2)ccc1Cl,101,107
CCn1c(CN2CCC(C)CC2)nc2cc(NC(=O)c3ccccc3[N+](=O)[O-])ccc21,104,110
CC(NC(=O)C1CCN(S(=O)(=O)c2ccc3c(c2)oc(=O)n3C)CC1)c1ccccc1 (stereo not given),107,112
Cc1ccc(C(=O)N/C(=C\c2cn(S(=O)(=O)N(C)C)c3ccccc23)C(=O)NCCCn2ccnc2)cc1,114,117
COc1ccc(OC)c(NC(=O)Cn2c(CCC(=O)O)ccc2-c2ccccc2)c1,130,154

# Additional results
SMILES,PV pol inh,PV pol inh intensity
O=C(NCCCN1CCN(c2ccccc2F)CC1)c1cc2c(s1)-c1ccccc1OC2,103,108
CCC(Sc1nnc(-c2ccc(OC)c(OC)c2)c(-c2ccc(OC)c(OC)c2)n1)C(=O)NC1CCCC1 (stereo not given),109,97
CCN(c1ccccc1)c1nnc(NC(=O)Nc2cccc(C(F)(F)F)c2)s1,108,107
O=C(Nc1ccc(Br)cc1)c1ccc(F)c(S(=O)(=O)N2CCc3ccccc32)c1,101,107
COc1ccc(N2CCN(C(=O)Nc3ccc(Cl)cc3)CC2)cc1,104,99
COC(=O)c1nc2n(n1)C(c1cccc(Cl)c1)C(C(=O)Nc1ccccc1OC)=C(C)N2 (stereo not given),105,100
Cc1nn(C)c2c1c(C(F)(F)F)cc(=O)n2C(C)C(=O)NCCc1ccc(Cl)cc1 (stereo not given),103,108
CCc1ccc(CNC(=O)CSCc2cnn(-c3ccccc3)c2-n2cccc2)cc1,112,111
CCc1ccc(NC(=O)[C@H](Cc2ccccc2)N2Cc3ccccc3C2=O)cc1,108,114
COC(=O)c1ccccc1NC(=O)CSc1nc2nc(C)cc(C)n2n1,103,107
CC(=O)N1CCc2c(sc3c2c(=O)n(-c2ccccc2)c(=O)n3Cc2cccc(C(F)(F)F)c2)C1,104,98
COc1cc(OC)c(NC(=O)C(CC(C)C)N2Cc3ccccc3C2=O)cc1Cl (stereo not given),104,101
COc1ccc(S(=O)(=O)c2c(Nc3ccc(C)cc3)sc(C(=O)c3ccc(C)cc3)c2N)cc1,107,98
COc1cccc(NC(=O)N2CCN(C(=O)c3nsc4ccccc34)CC2)c1,109,111
Cc1cccc(-n2ccnc2SCC(=O)Nc2cccc3ccccc23)c1C,107,112
COC(=O)c1c(NC(=O)c2nc(SCc3cccc(C)c3)ncc2Cl)sc2c1CCCC2,113,105
CCc1nn(CC(=O)Nc2cccc(C)c2C)c(=O)c2cc3sccc3n12,106,109
O=C(NCc1ccccc1)c1cccn1-c1nnc(N2CCCC2)s1,110,113
Cc1cccc(Cn2cc(S(=O)(=O)c3ccccc3)c(=O)c3cc(F)c(N4CCOCC4)cc32)c1,108,107
O=S(=O)(c1cccc(Cl)c1)n1c(/C=C/c2ccccc2Cl)nc2ccccc21,104,106
COc1ccc(NC(=O)C2=CC(c3ccc4c(c3)OCO4)=NS(=O)(=O)N2C)cc1,116,109
Cc1nn(CCCC(=O)NCc2ccccc2)c(=O)c2cc3sccc3n12,104,95
COc1ccc(CNC(=O)CCc2nc3cccnc3n2Cc2ccc(OC)cc2)cc1,105,111
Cc1ccc(-n2nc(C(=O)N3CCN(c4ccc(F)cc4)CC3)c(=O)n(C)c2=O)cc1,105,110
Cc1cc(C)c2c(=O)cc(CSc3nnc(-c4ccccc4)n3C)[nH]c2c1,111,108
COc1ccc(CCNC(=O)c2cnn(-c3ccc(F)cc3)c2C2CCN(C(=O)OC(C)(C)C)CC2)c(OC)c1,109,114
O=c1c2c3c(sc2n(Cc2cc(=O)n4ccccc4n2)c(=O)n1-c1ccccc1)CCC3,105,110
COc1ccc(OC)c(C2CC(=O)Nc3c2c(=O)[nH]c2nc4ccccc4n32)c1 (stereo not given),101,99
COc1ccccc1CCNC(=O)Cc1c(C)c2c(cc(C)c3c(C)c(C)oc32)oc1=O,107,109
Cc1ccc(C(=O)Nc2ccc(-c3nc4ccccc4s3)c(O)c2)c(C)c1,105,111
CCCN(CCC)c1ccc(C2N=C(N)Nc3nc4ccccc4n32)cc1 (stereo not given),107,109
CCOC(=O)c1c(NC(=O)/C(C#N)=C/c2ccc(OC)cc2)sc2c1CCC2,106,109
Cc1nn(-c2ccccc2)c2sc(C(=O)Nc3ccccc3Br)cc12,106,109
COc1cccc(NC(=O)C2CCN(c3nnc(-n4c(C)ccc4C)s3)CC2)c1,108,111
O=C(Cn1c(=O)oc2ccccc21)NCc1cccc(Cl)c1,109,111
CC(C)Oc1ccccc1C1C=C(C(=O)O)Nc2ncnn21 (stereo not given),106,109
COc1ccc(-c2c(C)nn3c(N4CCN(c5cc(Cl)ccc5C)CC4)cc(C)nc23)cc1OC,108,110
O=C(NCc1ccccc1)c1ccc2c(c1)sc1nc(-c3ccc(F)cc3)cn12,112,107
Cc1nc2nncn2c(NCc2ccc(Cl)cc2)c1C,115,110
O=C(CSc1oc(-c2ccccc2)nc1S(=O)(=O)c1ccc(Cl)cc1)c1ccccc1,99,102
Cc1ccc(-c2cn(-c3cccc(Cl)c3)c(S(=O)(=O)CC(=O)Nc3ccccc3F)n2)cc1,100,102
Cc1ccc2oc3c(c(=O)c2c1)C(c1ccc(F)cc1)N(c1nc(C)c(C)s1)C3=O (stereo not given),100,96
CCCSc1nc2sc3c(c2c(=O)n1-c1ccccc1)CCC(C)C3 (stereo not given),103,106
CCOC(=O)CN1C(=O)N(c2ccc(C)c(C)c2)S(=O)(=O)c2ccccc21,104,110
Cc1ccc(Cn2cc(C(=O)c3ccc(F)cc3)c(=O)c3cc4c(cc32)OCCO4)cc1,105,105
COc1ccc(NC(=O)c2cc3c([nH]c2=O)CC(c2ccccc2)CC3=O)cc1 (stereo not given),108,117
CC(C)Cn1c(=O)c2sccc2n2c(CCCC(=O)NCC(C)c3ccccc3)nnc12 (stereo not given),114,109
CN1CCN(c2nc3c(S(=O)(=O)c4ccc(Cl)cc4)nnn3c3ccsc23)CC1,111,108
Cc1nc2cccnc2n1-c1cccc(C(=O)NCc2cccc(Cl)c2)c1,108,113
COc1cccc(-c2nnc(SCC(=O)N3CCc4ccccc43)o2)c1,99,102
